GALR2 agonist: activates the human galanin receptor 2. 0.48% of 140,000 active. activation, %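 (tested at 5 µM)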. AID 803. GALR2-expressing cells, agonist activation read-out. O43603;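 active = above mean plus 3 SD of all compounds, about 5% in these data, not always enough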;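 also: 0% = vehicle buffer wells and 100% = reference agonist at full effect; tested in CHO reporter cells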
Target sequence (O43603 whole entry, looked up): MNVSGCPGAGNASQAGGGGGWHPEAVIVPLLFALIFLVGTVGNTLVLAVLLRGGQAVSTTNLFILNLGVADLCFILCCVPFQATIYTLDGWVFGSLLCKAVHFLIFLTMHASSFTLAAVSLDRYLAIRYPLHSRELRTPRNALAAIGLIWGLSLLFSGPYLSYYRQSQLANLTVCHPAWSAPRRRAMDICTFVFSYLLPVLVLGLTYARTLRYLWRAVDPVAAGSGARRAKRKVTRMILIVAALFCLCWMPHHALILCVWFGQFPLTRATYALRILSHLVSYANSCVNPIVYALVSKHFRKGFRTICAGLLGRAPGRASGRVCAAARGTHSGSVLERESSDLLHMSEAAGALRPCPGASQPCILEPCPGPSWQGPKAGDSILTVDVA
PKD1 kinase inh: blocks activity of human protein kinase D1 | Q15139 | PKD1 kinase fluorescence polarization assay | inhibition, %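 (about 10 µM by stock and volumes)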 | 0.056% of 200,000 active | AID 797;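 active = inhibition of 50% or more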;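 also: controls were vehicle for no effect and a reference inhibitor for full effect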
INS promoter inh: TRM-6 insulin promoter activity inhibition; inhibition, % at 2 µM; TRM-6 cells (human fetal islet line), insulin promoter-eGFP reporter, imaging; reporter expression induced with tamoxifen; 0.9% of 130,000 active;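 active = inhibition above the mean plus 3 SD, with well images judged a real hit on visual review, cut at about 60% in these data, passing the limit was not always enough; inconclusive = inhibition over the cutoff but images rejected on review; inactive = inhibition not above the cutoff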
RGS16-Gao: RGS16-Galphao interaction regulator (human); bead-based flow cytometry RGS16-Galphao binding, fluorescence; actives lie on both sides; O15492+P09471; binding response (% of control), % at 10 µM; AID 1441; 0.38% of 220,000 active;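 active = below 25% or above 175%, edge rows of some plates excepted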;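 also: Galphao activated by GDP with aluminum fluoride before binding; 100% = wells without compound and 0% = beads without RGS; some results beyond the cut were filed as inactive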
Target sequence (O15492 whole entry, looked up): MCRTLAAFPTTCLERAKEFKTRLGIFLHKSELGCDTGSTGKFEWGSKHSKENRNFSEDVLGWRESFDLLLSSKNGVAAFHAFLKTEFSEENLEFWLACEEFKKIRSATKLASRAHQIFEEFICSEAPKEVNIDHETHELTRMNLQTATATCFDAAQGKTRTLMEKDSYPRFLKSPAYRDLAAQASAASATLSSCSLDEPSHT
Target sequence (P09471 whole entry, looked up): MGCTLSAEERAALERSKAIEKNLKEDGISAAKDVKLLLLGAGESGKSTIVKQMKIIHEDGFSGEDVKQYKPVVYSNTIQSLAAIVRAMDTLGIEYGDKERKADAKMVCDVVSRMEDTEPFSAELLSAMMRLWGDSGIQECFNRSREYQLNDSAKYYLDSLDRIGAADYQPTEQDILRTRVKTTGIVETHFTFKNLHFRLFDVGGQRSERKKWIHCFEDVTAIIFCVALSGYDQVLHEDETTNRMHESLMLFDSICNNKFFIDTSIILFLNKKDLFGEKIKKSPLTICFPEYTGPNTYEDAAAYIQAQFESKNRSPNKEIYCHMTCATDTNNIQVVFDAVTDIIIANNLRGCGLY
HSV augment: increases HSV replication in cells; HSV replication augmentation in cells, fold increase; maximum fold increase; 0.005% of 220,000 active;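 active = peak rise of 1.5-fold or more in the series; inconclusive = self-fluorescent or not available for retest; tested in PC3 cells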;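 also: first round at 10 µM; read as green reporter fluorescence; hits show the peak of a series up to 25 µM; 1 = signal of infected wells without compound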
INS promoter inh cell count: second read-out of INS promoter inh, no call of its own (marks repeat the call); normalized cell count, %; measured here: cell count, toxicity; reference of the scale not given here;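 cells exposed to compound for 48 h; stained nuclei by imaging scaled within each plate; lower means fewer cells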
HSV augment primary fold: second read-out of HSV augment, no call of its own (marks repeat the call); fold increase; compound at 10 µM; measured here: primary screen fold increase 10 uM; tested in PC3 cells;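 GFP signal in the first replicate; 1 = infected wells without compound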
* hit, by the source's call; i = inactive; ? = inconclusive; / = not tested or not shown.

No.	mol	GALR2 agonist	PKD1 kinase inh	INS promoter inh	INS promoter inh cell count	RGS16-Gao	HSV augment	HSV augment primary fold
1	CCN(CCCNC(=O)COc1cc(=O)n(C)c2ccccc12)c1ccccc1	-1.4	-6.1	3.0	100.2	120.6	i	0.79
2	N#C/C(=N/Nc1ccc(OC(F)(F)F)cc1)C(N)=S	/	/	/	/	96.9	i	0.99
3	COc1cccc(/C=N/NC(=O)CNC(=O)C2COc3ccccc3O2)c1O (stereo unspecified)	-0.8	4.7	/	/	95.8	i	0.78
4	CCN(C(=O)CSc1nnnn1-c1ccccc1)C1CCS(=O)(=O)C1 (stereo unspecified)	/	-7.5	-81.0	94.0	112.5	i	0.91
5	CCN1CCN(c2ncc(C(=O)Nc3c(F)cc(F)cc3Br)c3ccccc23)CC1	1.2	-9.5	-39.4	118.8	110.7	i	0.79
6	COc1ccc(CC(=O)O/N=C(\N)c2ccccn2)cc1	/	/	/	/	104.5	i	0.97
7	CC(=O)Nc1cccc(NS(=O)(=O)c2ccccc2[N+](=O)[O-])c1	/	-0.8	0.0	94.1	108.0	i	1.06
8	N/C(=N\OC(=O)CC1CCCCC1)c1cccnc1	-1.5	-1.3	/	/	102.8	i	0.99
9	C/C(CC(=O)Nc1ccc(F)cc1)=N\NC(=O)Cc1csc(N)n1	-1.7	-0.6	/	/	102.0	i	0.95
10	COC(Cc1nnc(SC)n1-c1ccccc1)OC	1.9	-5.7	/	/	101.7	i	0.83
11	O=C(CSc1ncc(-c2ccc(F)cc2)[nH]1)N1CCCCC1	0.7	-6.9	13.5	107.9	96.5	i	0.94
12	CCN(CC)CCCN(Cc1cc2cc(OC)ccc2[nH]c1=O)C(=O)Nc1ccccc1	/	/	/	/	104.0	i	0.95
13	O=C(Cn1cc(C(F)(F)F)ccc1=O)Nc1cccc(S(=O)(=O)N2CCOCC2)c1	-0.6	-8.0	/	/	99.3	i	0.99
14	Cc1cc(C)cc(NC(=O)CSc2nc3c(c(=O)[nH]2)CN(Cc2ccc(F)cc2)CC3)c1	-0.2	-0.1	/	/	187.2	i	1.23
15	Nc1nc(SCc2ccc(Cl)cc2Cl)nc2nc3c(cc12)CCCC3	1.3	-2.7	-51.6	42.1	105.0	i	1.22
16	O=C1C=C(NCc2ccc(Cl)c(Cl)c2)C2(CCCCC2)O1	-2.0	6.6	-40.5	115.9	104.4	i	0.98
17	CC(C)Cn1c(-c2cccs2)nc2nc3ccccc3nc21	6.8	-2.1	/	/	101.5	i	0.763
18	Nc1cc(=O)[nH]c(SCC(=O)Nc2ccc(S(=O)(=O)N3CCOCC3)cc2)n1	-0.8	-5.5	-77.8	75.9	87.8	i	1.33
19	Cc1cc(/C=N/NC(=O)c2cccnc2)c(C)n1CC(C)C	/	-2.5	/	/	92.4	i	1.1
20	Cc1ccc2c(COC(=O)c3n[nH]c4ccccc34)cc(=O)oc2c1	-0.9	-4.0	/	/	102.4	i	0.88
21	CCOC(=O)C(C)Sc1nnc(CSc2nc3nc(C)cc(C)n3n2)o1 (stereo unspecified)	0.7	2.5	12.8	134.0	99.5	i	1
22	Cc1nc(C(Cl)(Cl)Cl)nc2[nH]ccc(=O)c12	/	1.6	/	/	100.8	i	0.84
23	COc1ccc(NC(=O)C(CC(=O)O)Cc2ccc(C)cc2)cc1 (stereo unspecified)	/	0.7	/	/	102.2	i	0.81
24	COc1ccc(/C=N/NC(=O)c2ccc(N(C)S(=O)(=O)c3ccccc3)cc2)cc1	/	-4.0	5.9	74.8	99.0	i	1.02
25	COc1ccc(NC(=S)N2CCC(N(C)CCN3CCOCC3)CC2)cc1Cl	-1.3	-10.0	-2.8	93.1	111.2	i	0.94
26	CC(C)C(=O)NC(=S)Nc1ccc(S(=O)(=O)Nc2ccccc2)cc1	-0.1	3.8	15.6	67.8	37.9	i	1
27	O=C(N/N=C/c1ccc(OCCCF)cc1)c1cc(OCC(F)(F)F)ccc1OCC(F)(F)F	1.3	-2.6	-25.8	101.4	94.8	i	0.92
28	COc1ccc(OC)c(/C=N/NC(=O)c2cc3c(OC)cccc3[nH]2)c1	/	/	/	/	93.0	i	0.89
29	CCn1c(CCNC(=O)c2ccc(Cl)cc2)n[nH]c1=S	-0.8	-9.3	-6.9	94.9	102.5	i	1.07
30	COc1ccc(OC)c(C(=O)COC(=O)c2cc(C)oc2C)c1	-0.9	-4.0	13.6	122.8	105.6	i	0.76
31	CC1(C)CN(c2ccc(Br)cc2Br)C1=O	/	1.0	-7.7	61.8	96.4	i	0.82
32	CC(C)(C)NCC(=O)c1c[nH]c2ccccc12	-0.2	1.3	/	/	99.1	/	/
33	Cc1cc(C)n(-c2ncnc3c2oc2ccccc23)n1	-2.7	19.7	/	/	108.8	i	1.02
34	CC1(C)C2CCC1(C)C(OCCNCCOC(=O)Nc1ccccc1)C2 (stereo unspecified)	/	/	/	/	102.5	i	0.95
35	CCCC1CC(CSc2ncn[nH]2)OC1=O (stereo unspecified)	-0.5	-11.6	0.0	102.2	99.4	i	1.21
36	COCCNC(=O)c1cc(Br)ccc1Cl	-2.1	6.5	50.0	124.3	103.4	i	0.93
37	O=C(/C=C/c1ccc(S(=O)(=O)N2CCOCC2)cc1)NC(=S)Nc1ccc(Cl)cc1Cl	/	-3.6	/	/	96.7	i	0.91
38	Cc1occc1-c1nnc(SCc2nc3ccccc3c(=O)n2CC#N)n1C	-1.6	-4.6	/	/	93.8	i	1.04
39	CC(=O)Nc1ccc(N=Nc2c(C)[nH]n(C(N)=S)c2=O)cc1	/	-3.2	-92.9	106.1	104.1	/	/
40	Nn1c(SCC(=O)Nc2ccc(F)cc2)nnc1-c1ccccn1	-1.8	-4.3	41.9	112.4	105.7	i	1
41	CC(=O)N1CCC(N(CCN2CCOCC2)C(=S)Nc2cc(C)cc(C)c2)CC1	/	-3.8	-6.2	95.4	101.9	i	0.88
42	C=C(C)C1Cc2nc(N)nc(C)c2C1 (stereo unspecified)	-3.8	-15.0	6.2	117.6	97.3	i	0.81
43	Cc1cc(O)c(C(C)C)cc1N=Nc1ccccc1C(=O)O	/	/	/	/	96.1	?	/
44	O=C(N/N=C/c1c(Cl)cccc1Cl)c1cccc(F)c1	-0.6	-4.8	23.3	132.6	95.5	i	0.89
45	Cc1cc(C)n2nc(C(=O)Nc3ccc4c(c3)CCC4)nc2n1	/	-2.1	4.8	103.0	108.7	i	0.99
46	COc1cc(C2NC(=O)NC(C)=C2C(=O)OC2CCCC(C)C2)ccc1O (stereo unspecified)	1.2	-1.3	/	/	95.5	i	1.03
47	COc1ccc(OCC(=O)Nc2cccc(OC)c2)cc1	-3.8	-5.3	/	/	106.3	i	0.93
48	CC(C)CC(=O)Nc1ccc(-c2nnn(CC(=O)NCc3ccco3)n2)cc1	/	5.3	15.0	112.8	97.8	i	0.84
49	CCN(CC)CCCSc1nc2ccccc2s1	/	-6.8	/	/	102.6	i	1
50	COC(=O)C1=C(C)N=C2SC(C#N)=C(N)N2C1c1ccc(OC)cc1 (stereo unspecified)	-0.8	14.4	/	/	99.5	i	1.03
51	COc1c(O)ccc2c1CN1CCc3cc4c(cc3C1C2)OCO4 (stereo unspecified)	/	/	/	/	98.5	i	1.02
52	CN(C)S(=O)(=O)c1cccc(NC(=S)N(CCC#N)Cc2cccnc2)c1	/	1.5	-453.3	69.3	102.3	i	0.98
53	O=C(OCc1ccccc1)C1=NNC2C(=O)N(c3ccc(Br)cc3)C(=O)C12 (stereo unspecified)	/	/	/	/	101.4	i	0.97
54	Cc1nc(NCc2cccnc2)c2c3c(sc2n1)CC(C)CC3 (stereo unspecified)	/	-2.7	/	/	101.0	i	0.87
55	CSc1nc(C)cc(SC(C(C)=O)C(=O)Nc2ccccc2)n1 (stereo unspecified)	-0.4	0.8	43.6	48.6	101.7	i	0.97
56	CCC1(c2ccccc2)NC(=S)N(c2ccc(C)cc2)N1 (stereo unspecified)	/	1.5	5.9	135.3	100.2	i	0.99
57	CCc1cc2c(=O)n(Cc3ccco3)c(SCc3c(C)noc3C)nc2s1	2.1	1.7	/	/	100.5	i	0.65
58	CC(C)OC(=O)c1cccc(C(=O)Oc2ccccc2)n1	-1.3	-0.2	0.0	58.8	103.7	i	1.08
59	NC(=O)C1(N2CCCCC2)CCN(CC(=O)Nc2ccccc2-c2ccccc2)CC1	-0.9	-13.3	-105.9	118.0	135.0	i	0.92
60	NC(=O)C1CCN(C2=C(NS(=O)(=O)c3ccccc3)C(=O)c3ccccc3C2=O)CC1	/	/	/	/	16.2*	i	0.97

Structures from the list above that have a thiophene ring, fused or not:
No.	mol	GALR2 agonist	PKD1 kinase inh	INS promoter inh	INS promoter inh cell count	RGS16-Gao	HSV augment	HSV augment primary fold
17	CC(C)Cn1c(-c2cccs2)nc2nc3ccccc3nc21	6.8	-2.1	/	/	101.5	i	0.763
54	Cc1nc(NCc2cccnc2)c2c3c(sc2n1)CC(C)CC3 (stereo unspecified)	/	-2.7	/	/	101.0	i	0.87
57	CCc1cc2c(=O)n(Cc3ccco3)c(SCc3c(C)noc3C)nc2s1	2.1	1.7	/	/	100.5	i	0.65

The listing picks up; the two compounds before the break are reprinted first.
No.	mol	GALR2 agonist	PKD1 kinase inh	INS promoter inh	INS promoter inh cell count	RGS16-Gao	HSV augment	HSV augment primary fold
59	NC(=O)C1(N2CCCCC2)CCN(CC(=O)Nc2ccccc2-c2ccccc2)CC1	-0.9	-13.3	-105.9	118.0	135.0	i	0.92
60	NC(=O)C1CCN(C2=C(NS(=O)(=O)c3ccccc3)C(=O)c3ccccc3C2=O)CC1	/	/	/	/	16.2*	i	0.97
61	Cc1ccc(CN2CCNC(=O)C2CC(=O)O)cc1 (stereo unspecified)	-1.2	-4.5	/	/	102.5	i	0.99
62	O=C(CCCN1C(=O)c2cccc3cccc(c23)C1=O)NCc1cccs1	/	-0.3	/	/	97.5	i	0.92
63	Nc1ccc2nc(CCCCCCCCc3nc4ccc(N)cc4[nH]3)[nH]c2c1	/	-4.2	/	/	101.3	i	0.82
64	COCCNc1ncnc2nc[nH]c12	-3.5	-4.7	/	/	107.2	i	0.85
65	NS(=O)(=O)c1cccc(NC(=O)/C=C/c2cccs2)c1	/	13.7	/	/	100.9	i	1.05
66	Cn1cnc([N+](=O)[O-])c1Sc1n[nH]c(N)n1	/	/	/	/	100.4	i	1.07
67	O=C(Cc1ccc(F)cc1)NCc1cccnc1	/	-8.5	/	/	105.6	i	0.76
68	N/C(CS(=O)(=O)c1ccccn1)=N\OC(=O)c1ccccc1Cl	/	/	/	/	98.0	i	1.01
69	CCOc1ccc(NCC(=O)N/N=C/C=C/c2ccccc2)cc1	-1.1	1.4	-35.5	69.4	117.6	i	1
70	COc1ccc2c(c1)c1ncnc(N3CCN(Cc4ccc5c(c4)OCO5)CC3)c1n2C	0.0	-3.0	/	/	93.2	i	0.75
71	O=c1ccc(-c2nc3cc(Cl)ccc3n2Cc2ccccc2)c[nH]1	/	-9.3	/	/	89.8	i	0.94
72	COC(=O)[C@@]1(Cc2ccc(OC)cc2)[C@H]2c3cc(C(=O)N(C)C)n(CCSCCO)c3C[C@H]2CN1C(=O)c1ccccc1	-1.3	3.5	35.0	127.8	23.4	i	1
73	Cc1cccc(OCC(=O)N2CCC(N3CCCCCC3)CC2)c1	-0.3	11.3	/	/	97.5	i	0.99
74	CCOC(=O)c1c(NCc2ccccc2)n[nH]c1C	-0.1	6.2	/	/	106.9	i	1
75	Cn1cc(/C(Cc2ccccc2)=N\O)c2ccccc21	-0.6	-4.2	/	/	102.7	i	0.88
